# From PubChem
# Mtb bLac sens – beta-lactam sensitization of Mtb H37Rv. M. tuberculosis H37Rv growth with meropenem, percent inhibition; hits of this screen are not shown here. inhibition, % at 25 µM. hit rate 0.27% among 330,000;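 active = about 74% or more and at least 40 points above the plate without the antibiotic, then above 30% in a dose series; inconclusive = first-round hits that could not be retested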;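 also: growth measured after seven days incubation then overnight dye step; 0% = bacteria only wells and 100% = bacteria with antibiotic; twin plates without the antibiotic show which effects depend on it; some results filed as inactive read as strong as hits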
# Mtb H37Rv – M. tuberculosis H37Rv growth inhibitors, H37Rv strain (AID 1626) | M. tuberculosis H37Rv growth inhibition; higher % means a stronger effect | inhibition, % at 10 µM, or IC50 in µM where a hit was titrated | hit rate 0.95% among 220,000;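 active = confirmed in a dose series; inconclusive = inhibition above 80% but not taken into the dose series; inactive = below 80% or under 30% at every dose of the series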;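 also: bacteria incubated seven days before Alamar blue readout; 0% = bacteria only wells and 100% = bacteria with antibiotic wells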
# RecA splice inh – blocks M. tuberculosis RecA intein splicing; P9WHJ3; hit rate 0.75% among 290,000; AID 2221; inhibition, %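 (about 9 µM by stock and volumes)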; cell-free RecA intein splicing, fluorescence; in the data active = inhibition above about 30%; inconclusive = no clear call, values can overlap the other calls;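 also: 0% = vehicle wells and 100% = reference inhibitor control wells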
# Target sequence (P9WHJ3 whole entry, looked up, canonical isoform): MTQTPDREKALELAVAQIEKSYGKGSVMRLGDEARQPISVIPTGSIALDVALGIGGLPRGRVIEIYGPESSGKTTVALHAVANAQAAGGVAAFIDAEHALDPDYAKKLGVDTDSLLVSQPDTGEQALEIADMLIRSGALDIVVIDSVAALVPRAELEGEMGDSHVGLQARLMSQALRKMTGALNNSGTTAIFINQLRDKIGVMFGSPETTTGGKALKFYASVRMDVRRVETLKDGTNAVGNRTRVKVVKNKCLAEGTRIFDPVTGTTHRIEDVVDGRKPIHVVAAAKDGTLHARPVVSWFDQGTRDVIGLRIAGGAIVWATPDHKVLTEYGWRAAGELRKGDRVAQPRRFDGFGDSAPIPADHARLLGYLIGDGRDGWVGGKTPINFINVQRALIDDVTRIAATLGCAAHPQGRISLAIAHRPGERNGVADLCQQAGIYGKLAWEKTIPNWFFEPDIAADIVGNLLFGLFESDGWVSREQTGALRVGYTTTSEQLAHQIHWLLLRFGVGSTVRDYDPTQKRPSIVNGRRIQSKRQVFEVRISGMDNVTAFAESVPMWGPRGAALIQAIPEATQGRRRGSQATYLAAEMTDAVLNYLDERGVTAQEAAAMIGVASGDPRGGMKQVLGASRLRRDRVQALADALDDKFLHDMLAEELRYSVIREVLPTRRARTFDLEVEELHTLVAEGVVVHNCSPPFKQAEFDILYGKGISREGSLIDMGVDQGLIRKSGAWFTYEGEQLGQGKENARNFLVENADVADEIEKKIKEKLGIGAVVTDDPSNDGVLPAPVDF
# Arbovirus inh – arbovirus infection inhibition | arbovirus infection cell-based antiviral screen | hit rate 0.37% among 200,000 | inhibition, % at 10 µM | AID 1251;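 active = inhibition from about 30%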;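 also: bluetongue infection of BSR cells; cell survival read as ATP light after 72 h; 0% = infected wells without compound and 100% = uninfected wells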
# YopH PTP inh – blocks Yersinia enterocolitica YopH tyrosine phosphatase; fluorescence Ex485/Em525; inhibition, %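 (about 10 µM by stock and volumes)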; hit rate 0.16% among 140,000; AID 898;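 active = inhibition of 50% or more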;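 also: controls were vehicle for no effect and minimum signal wells for full effect; inactives centre near -20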
# Arbovirus inh repeat – second read-out of Arbovirus inh, no call of its own (marks repeat the call); inhibition, %; measured here: 10K subset replicate screen; many hits read low in the repeat;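 first of two repeat runs on a subset; 0% = infected and 100% = uninfected wells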
# * = called active by the depositor; ? = inconclusive; . = no result given.
SMILES,Mtb bLac sens,Mtb H37Rv,RecA splice inh,Arbovirus inh,YopH PTP inh,others
COc1cccc(N2CCN(S(=O)(=O)c3ccc4c(c3)CC(C)N4C(=O)C3CC3)CC2)c1 (stereo unspecified),0,.,0.1,.,.,
Cc1cccc(-c2cc3nc4c(c(N5CCOCC5)n3n2)CCCC4)c1,17,10%,9.9,5,11,
C/C(CC(=O)Nc1ccc2c(c1)OCO2)=N\NC(=O)C(c1ccccc1)c1ccccc1,0,6%,1.6,-2,-2,
COc1cc(Cl)ccc1OCc1cc(C(=O)N2CCCCCC2)no1,1,.,-2.9,.,.,
Cc1ccc(-n2c(SCC(=O)NCC3CCCO3)nc3c(c2=O)SCC3)cc1 (stereo unspecified),0,2%,.,7,-20,Arbovirus inh repeat=4
C=CCOc1cccc(C2C(C(=O)c3ccco3)=C(O)C(=O)N2Cc2ccncc2)c1 (stereo unspecified),5,3%,1.6,-4,-39,
Cc1nnc(-c2ccc(Oc3ccc(C)c(C)c3)c([N+](=O)[O-])c2)o1,2,0%,-0.7,6,-15,
COc1ccccc1-c1cc(C(=O)NCc2ccccc2)no1,19,-5%,-2.8,-5,-38,
COc1cc(/C=N/NC(=O)c2cccs2)ccc1OCc1ccccc1,6,2%,-2.3,-12,1,
CC1C(=O)Nc2ccccc2N1C(=O)c1ccccc1 (stereo unspecified),-6,-8%,0.4,-7,.,
Cc1nn(-c2ccccc2)c(C)c1C(=O)OCC(=O)N1CC(=O)Nc2ccccc21,?,-15%,2.2,-6,-26,
CCOC(=O)CC(=O)CSCC(=O)Nc1ccc(C)cc1,-3,3%,-1.3,-1,7,
Cc1cccc(C)c1NC(=O)CSc1nnc(C)n1-c1ccccc1,-2,-1%,-0.8,0,-13,
O=C(O)c1ccc(N2C(=O)/C(=C/c3ccc(-c4ccc([N+](=O)[O-])cc4)o3)C=C2c2ccccc2)cc1,98,19µM*,32*,106*,.,
O=[N+]([O-])c1cccc(Nc2c3ccccc3nc3ccccc23)c1,8,-5%,-118,-18,.,
COc1cc(-c2[nH]ncc2CN2CCN(c3cccc(C)n3)CC2)cc(OC)c1OC,1,-1%,0.1,.,.,
Cc1ccc(OCCN(C)C(=O)C2CCC(=O)N(CCCN3CCOCC3)C2)cc1 (stereo unspecified),-6,.,0.3,.,.,
COc1ccc2c(c1OC)C(=O)N1c3ccccc3C(=O)N(c3ccccc3F)C21 (stereo unspecified),-2,-1%,1.5,17,-16,
O=C1S/C(=C/c2ccc(N3CCOCC3)o2)C(=O)N1Cc1ccc(F)cc1,-7,-3%,0.0,-36,1,
O=C(/C=C/c1ccc([N+](=O)[O-])s1)N1CCCCC1,100,6.4µM*,-3.9,-10,.,
Cc1ccc(-c2nnnn2-c2ccc(C)cc2)cc1,1,7%,3.1,5,.,
Cc1ccc(C(=O)NC2CCC(C)CC2)s1 (stereo unspecified),-3,.,0.8,.,.,
Cc1ccc(Nc2nc3ccccc3nc2Nc2c(C)n(C)n(-c3ccccc3)c2=O)cc1,-4,3%,.,5,-14,
COc1cccc(OCCCCCCN2CCOCC2)c1,-14,-4%,-2.6,-15,4,
O=C(N/N=C/c1ccc(Sc2nc3ccccc3[nH]2)o1)c1ccncc1,98,?,4.1,6,-18,
N#CC(c1ccc(F)cc1)c1ccc(C(=O)c2ccccc2)cc1 (stereo unspecified),3,13%,6.7,0,-17,
NNc1nc(C(F)(F)F)nc2ccccc12,-1,5%,-7.3,4,.,
CS(=O)(=O)c1ccccc1-c1nc(-c2ccc([N+](=O)[O-])cc2)no1,6,-2%,-1.7,5,.,
CCOc1ccc(N2C(=O)C3=C(C(c4ccc(Cl)cc4)=NCCN3)C2c2cccnc2)cc1 (stereo unspecified),-6,1%,-1.4,-14,.,
CCOC(=O)c1c(/N=C/N(C)C)sc(/C=N/Nc2ccccc2)c1-c1ccccc1Cl,97,?,-3.3,-30,-2,
CCSc1nnc(NC(=O)Cc2ccc(OC)c(OC)c2)s1,-2,-1%,0.4,2,-10,
C=CCNC(=O)N1CCCC(N2CCN(c3ccccc3OC)CC2)C1 (stereo unspecified),-3,.,-2.2,.,.,
O=C(c1ccccc1)C1CCCN(Cc2nc(-c3cnccn3)no2)C1 (stereo unspecified),0,1%,-1.4,-1,.,
C[C@H]1CN=C(Nc2ccccc2)N1CC1CCC1,-7,.,-1.8,.,.,
CCCCCCCCCCCCCCCC(=O)NCCc1c[nH]c2ccccc12,-17,.,-1.5,1,.,
COc1ccc(OC)c(C2CC(=O)Nc3n[nH]c(-c4ccccc4)c32)c1 (stereo unspecified),0,-7%,-2.6,-7,.,
Cc1cccc(NC(=O)CCC(=O)N/N=C/c2ccco2)c1,4,-3%,-0.6,-5,-28,
CN(C)CCCNc1oc(/C=C/c2cccs2)nc1S(=O)(=O)c1ccccc1,5,.,-17,.,.,
CC(C)N(Cc1cnn(C)c1)C(=O)C1CCC(=O)N(CCc2cccc(F)c2)C1 (stereo unspecified),5,.,-1.0,.,.,
COc1ccc(CNC(=O)C/C(C)=N/NC(=O)c2cc(OC)cc(OC)c2)cc1,-5,.,-1.6,.,.,
Cc1ccc(NCC(=O)N/N=C/c2c[nH]c3ccccc23)cc1,38,8%,-1.1,13,.,
O=C(CSc1nnc(-c2ccc(F)cc2)o1)Nc1ccc(S(=O)(=O)N2CCCC2)cc1,-4,-2%,1.4,-3,-53,
CCOC(=O)C(=O)Nc1ccc(S(=O)(=O)Nc2ncccn2)cc1,11,-1%,0.5,20,-22,
Cn1cnc([N+](=O)[O-])c1Sc1ccc([N+](=O)[O-])cc1,92,53%,20,-4,.,
O=C(CSc1nc(=O)n2ccccc2n1)NCc1ccccc1,-5,.,-0.8,.,.,
Cc1cccc(NS(=O)(=O)c2cc([N+](=O)[O-])ccc2C)n1,-9,-1%,-7.2,5,.,
COc1ccc(CN(CC2CCC(C(=O)O)CC2)C(=S)Nc2cc(C)ccc2C)cc1 (stereo unspecified),.,5%,.,11,.,
COc1cccc(CNC(=O)CCC2CCCN(C(=O)C3CCOCC3)C2)c1 (stereo unspecified),-1,3%,-2.8,3,.,
COc1ccc2[nH]c3c(c2c1)CCNC3c1ccc([N+](=O)[O-])o1 (stereo unspecified),-4,.,-0.9,.,.,
CCOC(=O)C1(Cc2ccccc2C)CCCN(C(=O)COC)C1 (stereo unspecified),-1,.,2.4,.,.,
O=C(CCNC(=O)c1ccco1)Nc1ccc(SC(F)F)cc1,70,?,-8.7,-2,.,
COc1cccc(N2CCN(Cc3cccc(Cl)c3)CC2)c1,-6,-4%,7.9,-10,-7,
Cc1cccc(NC(=O)N2CCC(n3nnc4cc(C)ccc43)CC2)c1,12,-4%,-3.1,-6,.,
COC(=O)CN1C(=O)[C@H]2[C@@H](c3ccc(C)o3)N3C(=O)CN(Cc4ccccc4)C(=O)[C@@]3(C)[C@H]2C1=O,-3,.,-0.5,.,.,
COC(CNC(=S)Nc1ccc([N+](=O)[O-])cc1)OC,-1,-5%,-4.2,4,-22,
COc1ccc2c(c1OC)C(=O)N(c1cccc(C(F)(F)F)c1)C2,55,0%,4.4,-3,-34,
O=C(Nc1nnc(-c2ccc(Cl)cc2)o1)Nc1ccccc1Cl,32,-6%,0.8,3,-19,
CCOC(=O)c1c(C)nc2cc(C)cc(C)n12,4,44%,-1.5,3,.,
Cc1ccc(SCc2cc(-c3ccc(Cl)cc3)no2)cc1,1,.,-0.8,7,-39,
CC(=O)NC(=S)Nc1ccc(S(=O)(=O)N2CCOCC2)cc1,-6,3%,-6.2,5,.,
# Continuation:
SMILES,Mtb bLac sens,Mtb H37Rv,RecA splice inh,Arbovirus inh,YopH PTP inh,others
COc1ccc(NC(=O)C2CCN(C(=O)Nc3ccc(C)cc3)CC2)cc1OC,-1,.,3.3,.,.,
O=C(Nc1ccc(F)cc1F)c1ccc(-n2cccn2)nc1,3,-6%,1.1,-5,.,
O=C(CCl)NC(Cc1ccccc1)c1ccccc1 (stereo unspecified),89,59%,15,12,.,
O=C(C1CC1)N1CCN(S(=O)(=O)c2ccc3c(c2)OCCO3)CC1,-10,6%,-8.1,-1,.,
CCOC(=O)[C@@H]1[C@H]2COc3ccccc3[C@H]2N2C(=O)N(c3ccccc3)C(=O)[C@]12C,-10,.,1.3,.,.,
O=C(O)c1ccc(S(=O)(=O)c2ccc3c(c2)C(=O)N(NC(=O)c2cccnc2)C3=O)cc1,2,-6%,-1.5,.,.,
O=C(Nc1ccc(-c2csnn2)cc1)C1CC1,93,>100µM*,-6.0,.,.,
O=C(Nc1ccccc1N1CCOCC1)c1cnccn1,-8,.,4.5,5,-35,
CC1(C)CC1C(=O)Nc1ccc([N+](=O)[O-])cc1Br (stereo unspecified),-5,-3%,3.7,1,-1,
Cc1ccnc(NC(=O)Cn2cc([N+](=O)[O-])cn2)c1,10,3%,-2.9,-1,.,
COc1ccc(C2(C)CC(=O)NC2=O)cc1 (stereo unspecified),10,.,0.9,.,.,
COCCN(Cc1ccccc1)C(=O)c1cccc(S(=O)(=O)N(C)c2c(C)n(C)n(-c3ccccc3)c2=O)c1,-9,.,0.0,.,.,
CC(=O)Nc1ccc(OCC(=O)NC(C)c2ccc(F)cc2)cc1 (stereo unspecified),6,-1%,2.1,11,.,
O=C(CN(C(=O)CCC(=O)Nc1nccs1)c1ccc(F)cc1)NCc1ccco1,4,-9%,-0.6,-4,-25,
O=[N+]([O-])c1nn(-c2ccc3c(c2)OCCO3)n(O)c1=NCCCO,59,-2%,-3.2,-20,-15,
Cc1ccc(/C=C/C(=O)N2CCN(c3cccc(C(F)(F)F)c3)CC2)cc1,2,9%,-1.2,-3,-31,
C/C(CC(=O)Nc1ccc(Br)cc1)=N\NC(=O)Cc1csc(N)n1,.,13%,11,.,.,
O=C(Nc1ccc(Cl)cc1Cl)c1n[nH]c(Cn2cncn2)n1,6,-6%,0.4,6,-18,
Cc1ccc(OCCCCn2ccnc2)c(Cl)c1,98,57%,-0.2,-8,7,
Cc1nc2ccccc2n1CCc1nc2c3ccccc3nc(SCC(=O)NCc3ccco3)n2n1,1,-1%,3.2,2,-42,
COc1ccc(-n2c(CNC(=O)c3cccs3)n[nH]c2=S)cc1,-2,3%,-3.0,1,.,
O=C(COc1ncnc2c1cnn2-c1ccccc1)Nc1ccc(S(=O)(=O)N2CCCCC2)cc1,42,37%,5.4,-4,-25,
Cc1cc2c(cc1C)NC(c1nc3ccccc3[nH]1)C1=C(CC(C)(C)CC1=O)N2 (stereo unspecified),-2,.,-1.6,9,-160,
O=C1c2cccnc2C(Nc2ccc(Br)cc2)N1Cc1cccs1 (stereo unspecified),10,.,.,9,.,
O=C(CNC(=O)c1ccco1)NC1CCCCCC1,-15,.,1.6,.,.,
COCCCN(C(C)=O)c1nc(-c2ccccc2)cs1,-2,4%,1.3,4,-9,
COC(=O)c1cc(S(=O)(=O)NCCc2ccc(C)cc2)c[nH]1,10,.,-0.1,.,.,
CN(C(=O)c1ccc(N2CCCCC2)c([N+](=O)[O-])c1)C1(C)CCS(=O)(=O)C1 (stereo unspecified),2,.,-0.1,.,.,
Cc1ccccc1Cn1c(-c2cncs2)nc2ccccc21,43,8%,5.5,-8,-57,
COc1cccc2c(=O)c3ccoc3n(C)c12,-4,-2%,-1.5,1,.,
CN(CC(=O)Nc1ccc(Cl)c(C(F)(F)F)c1)C(=O)CCNC(=O)c1ccco1,-13,.,-0.6,.,.,

# Structures listed so far that have a Cl atom:
SMILES,Mtb bLac sens,Mtb H37Rv,RecA splice inh,Arbovirus inh,YopH PTP inh,others
COc1cc(Cl)ccc1OCc1cc(C(=O)N2CCCCCC2)no1,1,.,-2.9,.,.,
CCOc1ccc(N2C(=O)C3=C(C(c4ccc(Cl)cc4)=NCCN3)C2c2cccnc2)cc1 (stereo unspecified),-6,1%,-1.4,-14,.,
CCOC(=O)c1c(/N=C/N(C)C)sc(/C=N/Nc2ccccc2)c1-c1ccccc1Cl,97,?,-3.3,-30,-2,
COc1cccc(N2CCN(Cc3cccc(Cl)c3)CC2)c1,-6,-4%,7.9,-10,-7,
O=C(Nc1nnc(-c2ccc(Cl)cc2)o1)Nc1ccccc1Cl,32,-6%,0.8,3,-19,
Cc1ccc(SCc2cc(-c3ccc(Cl)cc3)no2)cc1,1,.,-0.8,7,-39,
O=C(CCl)NC(Cc1ccccc1)c1ccccc1 (stereo unspecified),89,59%,15,12,.,
O=C(Nc1ccc(Cl)cc1Cl)c1n[nH]c(Cn2cncn2)n1,6,-6%,0.4,6,-18,
Cc1ccc(OCCCCn2ccnc2)c(Cl)c1,98,57%,-0.2,-8,7,
CN(CC(=O)Nc1ccc(Cl)c(C(F)(F)F)c1)C(=O)CCNC(=O)c1ccco1,-13,.,-0.6,.,.,

# An excerpt; the hit share may differ from the screen's.
